# NS1 function inh = qHTS Assay for Inhibitors of Influenza NS1 Protein Function; AID 2326, 2010; Potency, µM (titrated, usually from 46.1 µM), for the others: top-dose activity, positive = more growth; S. cerevisiae slowed by influenza A NS1, growth recovery by OD600; actives 0.4% (n = 270,000); also: actives are rising curves; nearly all actives have a fitted effect of over 50% in size
#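 In this qHTS, NS1 from influenza A is expressed in budding yeast, where it slows growth. Cells are switched from glucose to 2% galactose medium (pH 6.0, -URA), treated with compound, and growth recovery is read at OD600.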
# RE007 growth inh = qHTS Assay for Inhibitors of the HIV-1 protein Vpr; S. pombe RE007 Vpr strain, BacTiter-Glo ATP luminescence, 24 h; control for the full effect not named in the record; Potency, µM (top dose mostly 92.2 µM), for the others: at the top dose activity change, negative = less growth; actives 0.21% (n = 360,000); active = well fitted falling curve with a large enough effect; inconclusive = small, poorly fitted or top-dose-only effect; inactive = no such curve, though single readings can be large or run the other way;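 also: % is scaled to controls: 0 for no effect and ±100 for the full control effect; nearly all actives have a fitted effect of over 50% in size; the assay follows cell death caused by Vpr and the record does not say whether a fall means rescue or toxicity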
#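 Fission yeast strain RE007, carrying one chromosomally integrated HIV-1 vpr copy, was seeded at OD 0.01 in PMG+AL medium with 23 nL pinned compound. After 24 h at 30 °C and 99% humidity, viability was read by BacTiter-Glo luminescence.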
# LASV entry inh = qHTS for Inhibitors of binding or entry into cells for Lassa Virus | Lassa virus pseudotype entry inhibition, cell reporter; control for the full effect not named in the record | Potency, µM (series often up to 37.9 µM), without a hit: top-dose activity change, negative = inhibition, most hits filed as inhibitors | actives 1.2% (n = 300,000) | AID 540256, 2011; active means well fitted inhibition curve with a large enough effect; inconclusive means small, poorly fitted or top-dose-only effect, or effect the other way; inactive means flat fitted curve, though single readings scatter; tested in HEK293 cells; also: % is scaled to controls: 0 for no effect and ±100 for the full control effect; nearly all actives have a fitted effect of over 50% in size; luciferase read-out
# SARS PLpro yeast = qHTS of Yeast-based Assay for SARS-CoV PLP | Potency, µM (doses to about 32.9 µM), for the others: at the top dose activity, positive = growth rescue | S. cerevisiae expressing SARS-CoV PLpro, growth rescue; control for the full effect not named in the record | actives 0.19% (n = 330,000) | AID 485353, 2010; also: 0% is about no effect; nearly all actives have a fitted effect of over 55% in size; growth read by luminescence after 48 h
# Cruzain inh noDet = qHTS Assay for Promiscuous and Specific Inhibitors of Cruzain (without detergent). Cruzipain (Trypanosoma cruzi), P25779. purified cruzain, Z-FR-AMC fluorescence, no detergent. Potency, µM, without a hit: max response, negative = inhibition, usual class: inhibitors. actives 2.3% (n = 200,000); active = well fitted curve in the direction sought with a large enough effect; inconclusive = small, poorly fitted or top-dose-only effect, or another doubt; inactive = no such curve, though single readings can be large; an effect the other way counts as inactive or inconclusive;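 also: plate controls were enzyme without inhibitor for no effect and buffer without enzyme for full effect; nearly all actives have a fitted effect of over 40% in size; top concentration of the series not given in the record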
# Target sequence (P25779 123-467 limits assumed): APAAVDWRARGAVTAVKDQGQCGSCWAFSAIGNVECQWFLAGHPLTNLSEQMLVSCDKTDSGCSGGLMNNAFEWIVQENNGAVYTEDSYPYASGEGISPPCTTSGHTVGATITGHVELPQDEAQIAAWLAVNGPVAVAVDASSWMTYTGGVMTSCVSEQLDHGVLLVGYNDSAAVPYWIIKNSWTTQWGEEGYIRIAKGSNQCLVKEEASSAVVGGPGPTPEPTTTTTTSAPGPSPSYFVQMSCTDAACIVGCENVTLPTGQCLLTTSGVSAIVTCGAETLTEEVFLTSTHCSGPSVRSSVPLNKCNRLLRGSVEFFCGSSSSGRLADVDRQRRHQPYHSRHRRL
#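 Purified cruzain at 1.5 nM, pre-incubated 15 min with compound at room temperature in 100 mM sodium acetate pH 5.5, 5 mM DTT, 0.00005% Triton X-100. Reaction started with 2 uM Z-FR-AMC; AMC fluorescence increase over 60 s gives rate.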
# 2A StopGo = High Throughput Screening for Foot and Mouth Disease Virus Antivirals; actives 1.2% (n = 410,000); human cells with a luciferase reporter of 2A StopGo recoding; control for the full effect not named in the record; Potency, µM (doses to about 57.9 µM), for inactives: at the highest dose signal change, negative = less light; active = well fitted falling curve with a large enough effect; inconclusive = small, poorly fitted or top-dose-only effect; inactive = no such curve, though single readings can be large or run the other way; tested in HEK293T cells; also: % is scaled to controls: 0 for no effect and ±100 for the full control effect; nearly all actives have a fitted effect of over 45% in size; luciferase light after 4 h
# MARV entry inh = qHTS for inhibitors of binding or entry into cells for Marburg Virus; Marburg virus pseudotyped entry inhibition, cell reporter; control for the full effect not named in the record; about a third of the inactives were read at about 46 µM; Potency, µM (series often up to 37.8 µM), for inactives: top-dose activity change, negative = inhibition, actives largely listed as inhibitors; actives 1.8% (n = 300,000); AID 540276, 2011; active = well fitted inhibition curve with a large enough effect; inconclusive = small, poorly fitted or top-dose-only effect, or effect the other way; inactive = flat fitted curve, though single readings scatter; tested in HEK293 cells; about a fifth of its hits are not listed in these tables; also: % is scaled to controls: 0 for no effect and ±100 for the full control effect; luciferase read-out
# Cruzain inh Det = qHTS Assay for Promiscuous and Specific Inhibitors of Cruzain (with detergent); purified cruzain, Z-FR-AMC fluorescence, 0.01% Triton; AID 1478, 2009; actives 0.43% (n = 200,000); Cruzipain (Trypanosoma cruzi), P25779; Potency, µM, for inactives: max response, negative = inhibition, usual class: inhibitors; active = well fitted curve in the direction sought with a large enough effect; inconclusive = small, poorly fitted or top-dose-only effect, or another doubt; inactive = no such curve, though single readings can be large; an effect the other way counts as inactive or inconclusive;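 also: plate controls were neutral wells for no effect and buffer without enzyme for full effect; nearly all actives have a fitted effect of over 40% in size; top concentration of the series not given in the record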
#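 Detergent-containing run (0.01% Triton X-100) in acetate buffer pH 5.5 with 5 mM DTT: enzyme at 1.5 nM final, 15 min compound preincubation at room temperature, then 2 uM Z-FR-AMC substrate. Activity taken as 60 s fluorescence increase at 360/450 nm.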
# * marks the source's active call; other numbers are inactive results; ? = inconclusive; nt = no result given; & = joins results of further samples; [ ] = dose if it differs, or a comment. Unless noted, calls follow the shape of the dose curve; as a rule, active means well fitted rising curve with a large enough effect; inconclusive means small, poorly fitted or top-dose-only effect; inactive means no such curve, though single readings can be large or run the other way. Potency is read from the fitted curve at half-maximal effect. Random draw from the library; about 4.6% have a hit in one of these screens.
structure	NS1 function inh	RE007 growth inh	LASV entry inh	SARS PLpro yeast	Cruzain inh noDet	2A StopGo	MARV entry inh	Cruzain inh Det
O=C(COC(=O)c1n[nH]c2ccccc12)Nc1ccc(Cl)cc1[N+](=O)[O-]	-5%	-15%	-28%[46.1 µM]	14%	nt	5%	?	nt
Cc1c(NC(=O)CSCc2ccc(Br)cc2)c(=O)n(-c2ccccc2)n1C	-1%	6%	-3%[46.1 µM]	-1%	nt	-21%	-10%[46.1 µM]	nt
COc1ccc(OC)c(-c2cc(C(=O)Nc3cccc(Cl)c3C)no2)c1	nt	nt	-4%[46.1 µM]	nt	-8%	1%	8%[46.1 µM]	-19%
CC(C)CC(NC(N)=O)C(=O)Nc1ccc(Cl)c(Cl)c1 (stereo not drawn)	nt	-4%	nt	2%	nt	-21%	?	nt
Cc1cccc(OCC(=O)OCC(=O)c2c(N)n(C)c(=O)n(C)c2=O)c1C	2%	21%	?	7%	1%	20%	17%	-2.8%
CCOC(=O)c1cnc(Nc2nc3ccccc3o2)nc1CSc1ncccn1	4%	-24%	?	nt	nt	-2%	10%	nt
Cc1c(CC(=O)O)c(=O)oc2cc3occ(-c4ccccc4)c3cc12	7%	1%	nt	1%	nt	21%	nt	nt
CC(C)c1ccc(/C=C2\SC(=O)N(CC(=O)NCCCn3ccnc3)C2=O)cc1	5%	-2%	nt	-4%	nt	33%[activator]	nt	nt
O=C1CCCC/C1=C\Nc1ccc(O)cc1	?	-9%	21%	0%	-5%	18%	-20%	-7.7%
CC(C)NC(=O)C1CC(=O)N(c2ccc(F)c(Cl)c2)C1 (stereo not drawn)	-2%	-8%	14%	2%	4%	-19%	-14%	1.6%
O=C(c1ccc2c(c1)OCO2)N1CCC2(CC1)Oc1ccc(F)cc1C(=O)C21CC(c2ccc(Cl)cc2)=NO1 (stereo not drawn)	1%	-5%	nt	0%	nt	-18%	nt	nt
Cc1ccc(-c2nnc(N3CCN(C(=O)COc4cccc(C)c4)CC3)c3ccccc23)cc1	-43%	24%	?	-3%	nt	25µM*	?	nt
CC(=O)c1cnc2sccn2c1=O	nt	1%	0%	0%	nt	-2%	-19%[14.2 µM]	nt
COC(=O)c1cn(CCOc2ccccc2F)c2ccccc12	-6%	13%	3%	-33%	-12%	-5%	?	-5.3%
CCN(CC(=O)NCc1ccc(F)cc1)C(=O)c1cccnc1SC	14%	4%	-12%[46.1 µM]	17%	nt	11%	?	nt
O=C1CCC([N+](=O)[O-])C(c2cccc3ccccc23)N1 (stereo not drawn)	nt	5%	5%[46.1 µM]	-1%	nt	-11%	-3%[46.1 µM]	nt
Cc1ccc(S(=O)(=O)c2nc(-c3cccs3)oc2N2CCCCC2)cc1	nt	nt	-19%[46.1 µM]	nt	3%	34%[activator]	-25%[46.1 µM]	-5.6%
COc1ccc(N/C=C2\CCOC2=O)cc1	2%	11%	-2%	4%	-8%	28%	-13%	-2.4%
Cn1cnnc1SCC(=O)NCc1cccc(C(F)(F)F)c1	6%	-10%	2%	6%	0%	nt	2%	4.8%
CSc1nc2c(c(=O)[nH]1)C(c1ccncc1)C(C(=O)OC(C)C)=C(C)N2 (stereo not drawn)	-7%	8%	16%	4%	-8%	-3%	0%	-3.0%
CCN(Cc1ccccc1)c1ncnc2c1nnn2C	nt	nt	-19%[46.1 µM]	nt	-5%	0%	nt	-1.9%
O=C1CCN(S(=O)(=O)c2ccc(Cl)cc2)CCN1	2%	-4%	nt	0%	nt	38%[activator]	nt	nt
COCC(C)NC(=O)CCSc1nc(-c2ccc(OC)cc2)cc(C(F)(F)F)n1 (stereo not drawn)	-20%	-9%	-27%	-43%	?	?	-21%	-7.5%
CCNc1cc(Cl)nc(SC)n1	-4%	-15%	6%	1%	5%	9%	?	13%
Cc1ccc(CNS(=O)(=O)c2c(C)n(C)c(=O)n(C)c2=O)cc1	2%	-10%	17%	-5%	nt	-13%	11%[46.1 µM]	nt
COc1ccc(CCNC(=O)C(=O)NCCC2CCCCN2S(=O)(=O)c2ccccc2)cc1 (stereo not drawn)	nt	38%	?	0%	nt	?	0%	nt
CC(=O)c1cccc(NC(=O)CCOc2ccccc2)c1	-10%	-4%	-1%	-1%	-6%	31%[activator]	?	0.4%
CC(C)n1cc2c(c1-c1ccccc1Cl)c(=O)n(C)c(=O)n2C	nt	nt	-9%[46.1 µM]	nt	1%	-30%	-10%[46.1 µM]	-0.5%
C[C@@H](C(=O)NC1CCCC1)N1C(=O)N2CCc3c([nH]c4ccccc34)[C@@]2(C)C1=O	-3%	-8%	nt	4%	nt	-39%	nt	nt
COC(=O)COc1ccc(C2NC(=O)NC(c3ccccc3)=C2C(C)=O)cc1OC (stereo not drawn)	-7%	-3%	-30%	-13%	-2%	-2%	-2%	4.1%
CCOC(=O)C(=CNc1ccc(NC2=NCC(C)(C)S2)cc1)C(=O)OCC	-1%	6%	?	-1%	nt	-26%	?	nt
CSc1ncccc1C(=O)OCc1ccc(C#N)cc1	2%	18%	-2%	0%	-10%	-8%	14%	2.8%
CCNC(=S)N/N=C/c1ccc(OCC(=O)Nc2ccc(OC)cc2)c(OC)c1	20%	-4%	?	6%	20%	-1%	?	-4.2%
CC(C)(C)OC(=O)NCCc1nnc(SCC(N)=O)o1	-6%	-19%	19%	1%	4%	5%	6%	-4.2%
O=C1C=C(Nc2ccccc2)CC(c2ccccc2)C1 (stereo not drawn)	nt	12%	-26%	0%	nt	-5%	-2%[46.1 µM]	nt
Cc1nc(NC(=O)c2oc3ccccc3c2C)sc1C(=O)N(C)C	-13%	-6%	4%	-14%	?	36%[activator]	7%	-18%
Cc1cccc(OCC(=O)N(Cc2ccccc2)c2ccccn2)c1	nt	nt	-11%[46.1 µM]	nt	-10%	24%	22%[46.1 µM]	-5.7%
O=C(CCC(=O)N1CCOc2ccccc21)NCCN1CCOCC1	12%	22%	nt	4%	nt	-1%	nt	nt
CN(C)/C=N/c1sc2c(c1C(N)=O)CCCC2	nt	6%	15%	1%	nt	30%	4%	nt
O=C(O)CCN1C(=O)c2ccc(NC(=O)C(c3ccccc3)c3ccccc3)cc2C1=O	6%	0%	nt	0%	nt	-1%	nt	nt
COc1ccc(-c2cn[nH]c2-c2ccc(O)cc2O)cc1	0%	19%	nt	2%	nt	?	nt	nt
O=C(Nc1ccc2c(c1)OCCO2)c1ccc(S(=O)(=O)N2CCCCC2)cc1	-3%	8%	?	6%	-22%	-10%	1%	-3.3%
CCn1cc(C(=O)OCC(=O)c2cc(C)n(-c3ccccc3F)c2C)c(=O)c2ccc(C)nc21	17%	-14%	-16%	-21%	-16%	?	29%	-4.6%
CC(=O)c1cc(C(=O)Nc2ccccc2C(=O)O)oc1C	3%	-2%	0%	-1%	0%	1%	?	1.0%
Cc1c(NC(=O)CSc2nc3ccccc3[nH]2)c(=O)n(-c2ccccc2)n1C	-3%	4%	-27%[14.3 µM]	-3%	-1%	8%	13%	-1.4%
COc1ccc(NC(=O)c2cccc(Cn3cc(Br)c([N+](=O)[O-])n3)c2)c(C)c1	6%	7%	nt	-1%	nt	-13%	nt	nt
O=C(Nc1cccc(S(=O)(=O)N2CCOCC2)c1)c1ccc(=O)[nH]c1	nt	13%	2%	12%	nt	9%	8%	nt
Cc1c(C)n(C)c2ccc(C(=O)NCCCN3CCCCC3)cc12	10%	-7%	12%&29%[46.1 µM]	9%	8%	-10%&-1%	-27%[46.1 µM]	5.5%
Cc1noc(C)c1COC(=O)CCc1nc2ccccc2c(=O)[nH]1	4%	10%	10%	4%	-8%	11%	13%	4.0%
Cc1cccc(NC(=O)Nc2ccccn2)c1C	0%	-3%	nt	-1%	nt	10%	nt	nt

# The list continues:
structure	NS1 function inh	RE007 growth inh	LASV entry inh	SARS PLpro yeast	Cruzain inh noDet	2A StopGo	MARV entry inh	Cruzain inh Det
CCN(CCO)c1nc(N2CCCCC2)c2cnn(C)c2n1	-10%	14%	nt	9%	nt	-14%	nt	nt
CC(NC(=O)C1CCCN1S(=O)(=O)c1cccc2cccnc12)c1ccccc1 (stereo not drawn)	-1%	8%	nt	0%	0%	-8%	nt	-0.5%
CCc1ccc(CNC(=O)c2cc3c(=O)n(Cc4cccs4)ccc3nc2C)cc1	nt	nt	3%[46.1 µM]	nt	?	-11%	nt	-6.6%
CCN(CC)C(=O)CSc1nc2ccccc2o1	-4%	-8%	-3%	-4%	3.2µM*	56%[activator]	-11%	-1.4%
C=CCn1c(CCC(O)COCCCCC)n[nH]c1=S (stereo not drawn)	-3%	8%	6%	-1%	nt	-11%	16%	nt
COCC(O)CSc1nc(C)[nH]c1[N+](=O)[O-] (stereo not drawn)	-1%	1%	-2%	2%	6%	nt	9%	-2.8%
O=C(NCCN1CCOCC1)c1nn2c(c1Cl)NC(c1ccccc1)CC2C(F)(F)F (stereo not drawn)	-15%	-5%	26%	7%	-6%	nt	24%	1.7%
Cc1ccsc1/C=C/c1n[nH]c(=O)c(C#N)c1C	0%	-8%	2%	2%	nt	2%	0%[46.1 µM]	nt
COc1ccc(N(C(=O)c2snc(C(N)=O)c2N)C(C(=O)NCC2CCCO2)c2ccc3ncccc3c2)cc1OC (stereo not drawn)	-10%	-4%	-6%	1%	nt	5%	9%	nt
Cc1cccc(NC(=O)Cn2c(=O)n(CCC(=O)N3CCc4ccccc4C3)c(=O)c3ccccc32)c1	nt	nt	-18%[46.1 µM]	nt	7%	4%	?	-5.1%
Cc1ccc(N2C(=O)NC(NC(=O)c3ccc(Cl)cc3)(C(F)(F)F)C2=O)cc1 (stereo not drawn)	-6%	10%	5%	-13%	-2%	-25%	-2%	-7.4%
COc1ccccc1NC(=O)C1=C(C)Nc2nnnn2C1c1cccc(C)c1 (stereo not drawn)	0%	-2%	nt	-5%	-5%	0%	nt	0.7%
